# NOMO-1 viab – STK33 inhibitor candidate reducing NOMO-1 cell viability. NOMO-1 AML viability, CellTiter-Glo luminescence, 72 h. AID 2330. inhibition, % (test concentration not listed). actives 7.5% (n = 37,000);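 active = most replicates above 80%; inconclusive = exactly half above 80%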;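 note: wells of about 30 µL received 25 nL stock; 0% = median of vehicle wells and 100% = reference inhibitor level; the first replicate is given; inactives centre near 10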
# Active calls of the source: *; ? = inconclusive.
SMILES,NOMO-1 viab
Cc1ccc(N(C(C)C(=O)Nc2ccc(I)cc2)S(C)(=O)=O)cc1 (stereo unspecified),-7
C[C@H]1CN([C@@H](C)CO)C(=O)c2cccc(NC(=O)C3CC3)c2O[C@H]1CN(C)Cc1ccc(-c2ccccc2)cc1,30
C[C@@H]1CN([C@H](C)CO)C(=O)c2cccc(NS(=O)(=O)c3cn(C)cn3)c2O[C@@H]1CN(C)S(=O)(=O)c1cn(C)cn1,-15
C[C@@H]1CN([C@H](C)CO)C(=O)c2cccc(NS(=O)(=O)c3ccc(F)cc3)c2O[C@H]1CN(C)Cc1ccc(C(=O)O)cc1,-12
CC(=O)OC[C@]12[C@@H](OC(C)=O)C[C@@H]3[C@@H](OC(=O)c4ccccc4)[C@]1(OC3(C)C)[C@H](C)C[C@H](OC(=O)c1ccccc1)[C@@H]2OC(C)=O,72
C[C@@H]1CN([C@H](C)CO)C(=O)c2cc(NC(=O)CCCCCC(=O)Nc3ccccc3N)ccc2O[C@@H]1CN(C)C(=O)NC1CCCCC1,26
Oc1ccc(CNc2cccc(C(F)(F)F)c2)c2cccnc12,104*
C[C@H]1CN([C@@H](C)CO)C(=O)c2cc(NS(=O)(=O)c3cn(C)cn3)ccc2O[C@H]1CN(C)C(=O)Nc1ccccc1,8
C[C@@H]1CN([C@@H](C)CO)C(=O)Cc2cc(NC(=O)Nc3ccc4c(c3)OCO4)ccc2O[C@@H]1CN(C)Cc1ccc(C(F)(F)F)cc1,95*
Cc1noc(C)c1S(=O)(=O)N(C)C[C@H]1Oc2ccc(NC(=O)Nc3ccc(C(F)(F)F)cc3)cc2CC(=O)N([C@@H](C)CO)C[C@H]1C,92*
COC(=O)CSc1nnc(-c2sc3ccccc3c2Cl)n1-c1ccc(OC)cc1,85*
CC(C)NC(=O)N(C)C[C@H]1Oc2ccc(NC(=O)Cc3cn(C)c4ccccc34)cc2C(=O)N([C@@H](C)CO)C[C@@H]1C,6
Cc1cc(C)nc(N(C#N)CC(=O)N2c3ccccc3CCc3ccccc32)n1,12
Cc1oc2c(c1C(=O)NC1CCCC1)C(=O)c1ccccc1C2=O,140*
C[C@@H]1CCCCO[C@H](CN(C)C(=O)C2CCCCC2)[C@@H](C)CN([C@H](C)CO)C(=O)c2cc(NC(=O)Nc3ccc4c(c3)OCO4)ccc2O1,17
C[C@@H]1CN([C@@H](C)CO)C(=O)c2cc(NC(=O)Cc3cn(C)c4ccccc34)ccc2O[C@H]1CN(C)C(=O)Nc1ccccc1,-6
O=C(COc1ccc([N+](=O)[O-])cc1)Nc1ccc2oc(-c3ccc(F)cc3)nc2c1,?
CC1(C)Cc2c(c(N3CCOCC3)nc3sc4c(SCc5nc6ccccc6[nH]5)ncnc4c23)CO1,28
Cc1ccc(-c2noc(CN(C(=O)c3cccc([N+](=O)[O-])c3)C(C)C)n2)cc1,15
CC(C)NC(=O)Nc1ccc2c(c1)C(=O)N([C@H](C)CO)C[C@@H](C)[C@@H](CN(C)C(=O)Nc1ccccc1)O2,16
C[C@H](CO)N1C[C@H](C)[C@@H](CN(C)S(=O)(=O)c2ccc(F)cc2)Oc2ccc(NS(=O)(=O)c3cn(C)cn3)cc2C1=O,10
C[C@@H]1CCCCO[C@H](CN(C)C(=O)NC2CCCCC2)[C@@H](C)CN([C@H](C)CO)C(=O)c2cc(NC(=O)CCC(F)(F)F)ccc2O1,1
COc1ccc(S(=O)(=O)N(C)C[C@@H]2Oc3ccc(NS(=O)(=O)c4ccccc4)cc3C(=O)N([C@H](C)CO)C[C@H]2C)cc1,28
O=C(COc1ccc(I)cc1)Nc1ccc([N+](=O)[O-])cc1O,29
C[C@H]1CN([C@@H](C)CO)C(=O)Cc2cc(NS(=O)(=O)c3ccccc3)ccc2O[C@H]1CN(C)S(=O)(=O)c1cn(C)cn1,11

# A different layout for some results above:
compound: C[C@H]1CN([C@@H](C)CO)C(=O)c2cc(NS(=O)(=O)c3cn(C)cn3)ccc2O[C@H]1CN(C)C(=O)Nc1ccccc1
  NOMO-1 viab: 8

compound: C[C@@H]1CN([C@@H](C)CO)C(=O)Cc2cc(NC(=O)Nc3ccc4c(c3)OCO4)ccc2O[C@@H]1CN(C)Cc1ccc(C(F)(F)F)cc1
  NOMO-1 viab: 95*

compound: Cc1noc(C)c1S(=O)(=O)N(C)C[C@H]1Oc2ccc(NC(=O)Nc3ccc(C(F)(F)F)cc3)cc2CC(=O)N([C@@H](C)CO)C[C@H]1C
  NOMO-1 viab: 92*

compound: COC(=O)CSc1nnc(-c2sc3ccccc3c2Cl)n1-c1ccc(OC)cc1
  NOMO-1 viab: 85*

# Exported field by field: entries from further up.
Oc1ccc(CNc2cccc(C(F)(F)F)c2)c2cccnc12
  NOMO-1 viab: 104*
C[C@H]1CN([C@@H](C)CO)C(=O)c2cc(NS(=O)(=O)c3cn(C)cn3)ccc2O[C@H]1CN(C)C(=O)Nc1ccccc1
  NOMO-1 viab: 8

# The results go on.
SMILES,NOMO-1 viab
Nc1nnc(SCC(=O)N2CCN(Cc3ccccc3)CC2)s1,3
COc1ccc2c(=O)cc(-c3ccccc3OC)oc2c1,-10
COc1ccc(CN(C)C[C@@H]2Oc3ccc(NC(=O)c4ccncc4)cc3C(=O)N([C@H](C)CO)C[C@H]2C)cc1,16
C[C@H]1CN([C@@H](C)CO)C(=O)c2cccc(NS(=O)(=O)c3cn(C)cn3)c2O[C@H]1CN(C)C(=O)Nc1cccc2ccccc12,-11
C[C@@H]1CN([C@@H](C)CO)C(=O)c2cc(NC(=O)CCCN(C)C)ccc2O[C@@H]1CN(C)S(=O)(=O)c1cn(C)cn1,-8
C[C@H]1CN([C@@H](C)CO)C(=O)Cc2cc(NC(=O)CCN3CCOCC3)ccc2O[C@@H]1CN(C)Cc1ccncc1,6
CC(=O)c1ccc(NC(=O)CSc2nnc3n(C)c(=O)c4c5c(sc4n23)CCCC5)cc1,18
COc1ccc(-c2nnc3c4ccccc4c(C)nn23)cc1S(=O)(=O)NCc1ccccc1,47
COc1ccc(/C=C/C(=O)NCc2ccccc2)cc1,-3
COc1cc(C)c(Cl)cc1S(=O)(=O)NCCN1CCOCC1,5
CNC[C@H]1Oc2ccc(NS(=O)(=O)c3c(C)noc3C)cc2CC(=O)N([C@@H](C)CO)C[C@H]1C,36
COc1ccccc1CN1CCN(Cc2ccc(OC)c(OC)c2OC)CC1,26
COc1ccc(NC(=O)N(C)C[C@@H]2Oc3c(NS(=O)(=O)c4cccs4)cccc3C(=O)N([C@H](C)CO)C[C@H]2C)cc1,20
COc1cc(NC(=O)COC(C)=O)cc(OC)c1OC,10
C[C@H]1CN([C@@H](C)CO)C(=O)c2cccc(NC(=O)Nc3ccccc3)c2O[C@H]1CN(C)C(=O)Nc1ccc2c(c1)OCO2,20
Nc1cc(N)nc(SCC(=O)Nc2cccc(Cl)c2Cl)n1,23
C[C@@H]1CN([C@@H](C)CO)C(=O)c2cccc(NC(=O)C3CCOCC3)c2O[C@@H]1CN(C)C(=O)Nc1ccc(C(F)(F)F)cc1,11
CCC(CCC(=O)Nc1ccccc1[N+](=O)[O-])C(=O)O (stereo unspecified),22
CC(C)NC(=O)Nc1cccc2c1O[C@@H](CN(C)C(=O)Nc1ccc(C(F)(F)F)cc1)[C@@H](C)CN([C@H](C)CO)C2=O,21
Cc1ccc(S(=O)(=O)N(C)C[C@@H]2Oc3ccc(NS(C)(=O)=O)cc3CC(=O)N([C@H](C)CO)C[C@H]2C)cc1,1
COc1ccc(CN(C)C[C@H]2OCCCC[C@@H](C)Oc3ccc(NC(=O)Nc4ccc(OC)cc4)cc3C(=O)N([C@H](C)CO)C[C@@H]2C)cc1,8
CCOC(=O)c1c(NC(=O)Cn2nc([N+](=O)[O-])c(Br)c2C)sc2c1CCCC2,41
Cc1cc(C(=O)Nc2cccc3c2O[C@H](CN(C)Cc2ccc(-c4ccccc4)cc2)[C@@H](C)CN([C@H](C)CO)C3=O)n(C)n1,89*
CNC[C@@H]1Oc2ccc(NC(=O)Nc3ccc4c(c3)OCO4)cc2CC(=O)N([C@@H](C)CO)C[C@@H]1C,11
CCOc1ccccc1-c1nc(SCC(=O)Nc2sc3c(c2C#N)CCCC3)n[nH]1,11
# The results go on.
SMILES,NOMO-1 viab
O=C(O)C1CCCN(S(=O)(=O)c2ccccc2)C1 (stereo unspecified),0
C[C@@H]1CN([C@H](C)CO)C(=O)c2cc(NC(=O)Nc3cccc4ccccc34)ccc2O[C@H]1CN(C)C(=O)Nc1ccc(C(F)(F)F)cc1,49
Cc1cc(C(=O)Nc2cccc3c2O[C@@H](CN(C)Cc2ccc(C(=O)Nc4ccccc4N)cc2)[C@H](C)CN([C@H](C)CO)C3=O)n(C)n1,72
O=C(CSc1nc2cc(Cl)ccc2s1)Nc1ccc(I)cc1,8
C[C@@H]1CN([C@H](C)CO)C(=O)Cc2cc(NC(=O)Nc3ccc(C(F)(F)F)cc3)ccc2O[C@H]1CN(C)S(=O)(=O)c1cccs1,12
C[C@H]1CN([C@@H](C)CO)C(=O)Cc2cc(N(C)C)ccc2O[C@H]1CN(C)Cc1ccc2c(c1)OCO2,14
CC(C)NC(=O)Nc1cccc2c1O[C@H](CN(C)C(=O)Nc1ccc3c(c1)OCO3)[C@H](C)CN([C@@H](C)CO)C2=O,15
COc1ccc(S(=O)(=O)N(C)C[C@H]2Oc3c(NS(=O)(=O)c4ccccc4)cccc3C(=O)N([C@@H](C)CO)C[C@@H]2C)cc1,2
CCCOc1ccc(Oc2nc(Nc3ccc(C)cc3)nc(N3CCOCC3)n2)nn1,-5
Cc1ccc(S(=O)(=O)Nc2ccc3c(c2)C(=O)N([C@H](C)CO)C[C@H](C)[C@H](CN(C)C(=O)Nc2ccc(C(F)(F)F)cc2)OCCCC[C@@H](C)O3)cc1,114*
C[C@H]1CN([C@@H](C)CO)C(=O)c2cc(NC(=O)c3ccncc3)ccc2O[C@H]1CN(C)S(=O)(=O)c1cn(C)cn1,11
CCOc1ccc(-c2cn(S(=O)(=O)c3cccc4nsnc34)nc2N)cc1,-3
C[C@H]1CN([C@@H](C)CO)C(=O)c2cc(NS(=O)(=O)c3cccs3)ccc2O[C@@H]1CN(C)Cc1ccc2c(c1)OCO2,-2
CO[C@H]1CC(O[C@@H]2/C(C)=C/C[C@@H]3C[C@@H](C[C@]4(CC[C@H](C)[C@@H](C5CCCCC5)O4)O3)OC(=O)[C@@H]3C=C(C)/C(=N/O)[C@H]4OC/C(=C\C=C\[C@@H]2C)[C@]43O)O[C@@H](C)C1O (stereo partly specified),10
COc1ccc(S(=O)(=O)Nc2cccc3c2O[C@H](CN(C)Cc2ccc(C(F)(F)F)cc2)[C@@H](C)CN([C@H](C)CO)C3=O)cc1,3
COc1ccc(CN(C)C[C@@H]2Oc3ccc(NS(=O)(=O)c4ccc(OC)cc4)cc3C(=O)N([C@H](C)CO)C[C@@H]2C)cc1,8
C[C@@H]1CN([C@@H](C)CO)C(=O)c2cccc(NS(=O)(=O)c3ccc(F)cc3)c2O[C@@H]1CN(C)C(=O)NC1CCCCC1,44
Cc1noc(C)c1NC(=O)N(C)C[C@@H]1Oc2c(NS(=O)(=O)c3ccc(F)cc3)cccc2C(=O)N([C@H](C)CO)C[C@@H]1C,25
O=C(CSc1nc(O)cc(=O)[nH]1)Nc1ccc(Cl)cc1,-3
C[C@H]1CN([C@@H](C)CO)C(=O)Cc2cc(NS(=O)(=O)c3ccc(Cl)cc3)ccc2O[C@H]1CN(C)S(=O)(=O)c1cccs1,19
Cc1noc(C)c1NC(=O)N(C)C[C@@H]1Oc2ccc(NS(C)(=O)=O)cc2C(=O)N([C@@H](C)CO)C[C@@H]1C,-16
C[C@H](CO)N1C[C@H](C)[C@H](CN(C)Cc2ccc(-c3ccccc3)cc2)Oc2ccc(NC(=O)NC3CCCCC3)cc2C1=O,9
Nc1ncnc2c1c1nc3ccccc3nc1n2Cc1ccccc1,18
C[C@H]1CN([C@@H](C)CO)C(=O)Cc2cc(NC(=O)C3CC3)ccc2O[C@@H]1CN(C)S(=O)(=O)c1ccccc1,1
C[C@H](CO)N1C[C@H](C)[C@H](CN(C)S(=O)(=O)c2ccc(F)cc2)Oc2ccc(N(C)C)cc2C1=O,11
# The list goes on.
SMILES,NOMO-1 viab
CSc1cccc(NC(=O)CN(C)S(=O)(=O)c2ccc3ccccc3c2)c1,-13
C[C@@H]1CN([C@@H](C)CO)C(=O)c2cc(NC(=O)Nc3cccc4ccccc34)ccc2O[C@@H]1CN(C)S(C)(=O)=O,15
CC(C)NC(=O)Nc1ccc2c(c1)C(=O)N([C@@H](C)CO)C[C@H](C)[C@@H](CN(C)Cc1ccc(Oc3ccccc3)cc1)O2,20
CCCN(C)C[C@H]1OCCCC[C@@H](C)Oc2ccc(NC(=O)Nc3c(C)noc3C)cc2C(=O)N([C@H](C)CO)C[C@@H]1C,17
C[C@@H]1CN([C@H](C)CO)C(=O)c2cc(NC(=O)Nc3ccc4c(c3)OCO4)ccc2O[C@H]1CN(C)C(=O)Nc1ccc2c(c1)OCO2,9
Cc1ccc(-c2nn3c(C)nnc3c3ccccc23)cc1S(=O)(=O)NCCN1CCOCC1,25
C/C(=N\O)c1ccc2c(c1)CCO2,17
Cc1noc(C)c1S(=O)(=O)Nc1ccc2c(c1)CC(=O)N([C@@H](C)CO)C[C@@H](C)[C@@H](CN(C)Cc1ccc(-c3ccccc3)cc1)O2,48
COc1cc(-c2coc3cc(OCc4ccccc4)c(OC)c(O)c3c2=O)cc(OCc2ccccc2)c1OC,11
CC1=C(C#N)C(c2cc(F)ccc2F)C(C(=O)OCc2ccccc2)=C(N)O1 (stereo unspecified),74
Cc1ccc(S(=O)(=O)N(C)C[C@H]2Oc3c(NC(=O)c4cc(C)nn4C)cccc3C(=O)N([C@@H](C)CO)C[C@@H]2C)cc1,7
CCOC(=O)c1cnc(SCC(=O)Nc2ccc(Cl)cc2Cl)nc1N,71

# Screening results from PubChem BioAssay.

# The list is partial (hit frequency here may not be typical).
